Kir21 inh – inhibitors of mouse Kir2.1 inward-rectifier potassium channel | HEK293-Kir2.1, FluxOR thallium flux fluorescence; hits give low values | Inward rectifier potassium channel 2 (Mus musculus), P35561 | AID 1672, 2009 | B-score at 10 µM | 310,000 compounds, 0.85% hits;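 active = fluorescence ratio B-score at or below minus 3 SD of library scores, with starting-brightness B-score within 2 SD, cut at about -4.2 in these data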;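 also: channel flux triggered by added potassium and thallium sulfate stimulus; B-score of peak minus minimum fluorescence over baseline after thallium stimulus; more negative B-score means stronger Kir2.1 block with less thallium influx; some compounds called inactive have numbers as strong as hits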
STK33 inh – inhibitors of purified STK33 kinase, primary screen, biochemical, ADP-Glo luminescence, homogeneous, cell-free. Serine/threonine-protein kinase 33 (Homo sapiens), Q9BYT3. MBP phosphorylation. inhibition, % at 10 µM. 320,000 compounds, 0.073% hits. AID 2661, 2010;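 active = inhibition at or above 25%, using the most active replicate where run in duplicate; inactive = inhibition below 25%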
Target sequence (Q9BYT3 whole entry, looked up): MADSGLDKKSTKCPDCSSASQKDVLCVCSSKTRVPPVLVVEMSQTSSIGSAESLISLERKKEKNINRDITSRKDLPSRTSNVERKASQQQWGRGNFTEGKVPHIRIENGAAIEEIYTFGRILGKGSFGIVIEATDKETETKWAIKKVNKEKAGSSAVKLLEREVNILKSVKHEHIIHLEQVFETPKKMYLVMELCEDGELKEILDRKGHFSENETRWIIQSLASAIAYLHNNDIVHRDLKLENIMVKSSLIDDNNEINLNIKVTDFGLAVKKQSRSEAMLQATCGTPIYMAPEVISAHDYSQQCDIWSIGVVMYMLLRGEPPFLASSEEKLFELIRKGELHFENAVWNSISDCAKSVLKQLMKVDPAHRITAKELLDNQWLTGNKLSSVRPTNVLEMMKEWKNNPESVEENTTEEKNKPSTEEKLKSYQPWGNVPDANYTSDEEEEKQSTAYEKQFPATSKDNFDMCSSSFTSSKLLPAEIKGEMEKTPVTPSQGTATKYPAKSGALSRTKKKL
An asterisk follows results filed as active.

Start of the data: the first 7 records (preview)
structure,STK33 inh,Kir21 inh
Cc1ccc2c(c1)C1CN(C)CCC1N2C(=O)c1ccc(Br)o1 (stereo not given),-0.6,0.01
NS(=O)(=O)c1ccc(N2CCNCC2)cc1,-0.3,0.32
CCC(=O)c1ccc(OC)c(OC)c1,-0.7,-1.23
O=C(c1ccco1)c1cn(Cc2ccccc2)c2ccccc12,-0.7,-0.22
COc1ccc(C(=O)C2CN(C)CC2c2ccc(Cl)cc2)cc1 (stereo not given),-1.3,-6.37*
CCC1(c2ccccc2)C(=O)N(C)C(=O)N(C)C1=O,-1.4,1.88
O=C(C1CCC(=O)N1C1CCCC1)N1CCC2(CC1)OCCO2 (stereo not given),1.2,1.18

Main list (from the top)
structure,STK33 inh,Kir21 inh
Cc1ccc2c(c1)C1CN(C)CCC1N2C(=O)c1ccc(Br)o1 (stereo not given),-0.6,0.01
NS(=O)(=O)c1ccc(N2CCNCC2)cc1,-0.3,0.32
CCC(=O)c1ccc(OC)c(OC)c1,-0.7,-1.23
O=C(c1ccco1)c1cn(Cc2ccccc2)c2ccccc12,-0.7,-0.22
COc1ccc(C(=O)C2CN(C)CC2c2ccc(Cl)cc2)cc1 (stereo not given),-1.3,-6.37*
CCC1(c2ccccc2)C(=O)N(C)C(=O)N(C)C1=O,-1.4,1.88
O=C(C1CCC(=O)N1C1CCCC1)N1CCC2(CC1)OCCO2 (stereo not given),1.2,1.18
c1ccc2oc(N3CCNCC3)nc2c1,-5.5,0.06
Cn1c(O)c(C(=NCCc2c[nH]c3ccccc23)c2ccccc2)c(=O)n(C)c1=O,-0.1,1.43
CCCCCCn1c(=O)c(C(=O)Nc2cccc(C)n2)c(O)c2ccccc21,0.4,-2.15
CCCCn1c(=O)c(C(=O)Nc2ccc(C)cn2)c(O)c2ccccc21,-1.1,-0.48
CCN1C(=O)NC(=O)/C(=C\c2ccc(N3CCOCC3)cc2OC)C1=O,0.7,1.74

Later entries:
structure,STK33 inh,Kir21 inh
CCN1CCN(CC(=O)c2c(C)n(Cc3ccccc3)c3ccc(OC)cc23)CC1,0.0,1.7
CC(=O)N1CCN(CC(=O)Nc2ccc(C#N)c(Cl)c2)CC1,-1.5,0.5
Cc1cccc(-n2c(C)nc3ccccc3c2=O)c1C,0.6,-0.18
Cc1c(C)c2ccc(OCC(=O)N3CCC(C(=O)O)(c4ccccc4)CC3)c(C)c2oc1=O,6.0,-0.07
N#Cc1ccc(NC(=O)CCNC(=O)c2ccco2)cc1Cl,-4.1,-0.98
CC(=O)C1C2c3ccccc3O[C@@]1(C)N=c1s/c(=C/c3ccoc3)c(=O)n12 (stereo not given in full),-0.9,-1.04
CN(C(=O)Cc1ccc2c(c1)OCO2)C1CCCN(Cc2ccccc2F)C1 (stereo not given),-0.8,-1.44
Cc1cc(OC(=O)c2ccco2)c2c3c(c(=O)oc2c1)CCCC3,0.0,-2.29
N/C(=N\[N+](=O)[O-])N1CCN(C(=O)Oc2ccccc2)CC1,-0.5,-1.41
CC(=O)OC1(c2ccccc2)CC(C(C)(C)C)CN(C(C)(C)C)C1 (stereo not given),-0.2,-2.27
O=C(CN1CCCCC1)c1ccccc1Cl,0.2,-0.82
CCc1ccc(N2C(=O)NC(=O)C(Cc3ccc(OC)cc3OC)C2=O)cc1 (stereo not given),0.1,-0.38

New compounds follow
structure,STK33 inh,Kir21 inh
Cc1ccc(N=Cc2c(O)n(-c3ccc(C)cc3)c(=O)[nH]c2=O)cc1,-1.1,1.68
O=C1CN=C(c2ccc[nH]2)c2cc(Cl)ccc2N1,0.8,-0.3
CCCN1CCC[C@@H]2Cc3[nH]ncc3C[C@H]21,-3.6,-0.15
CCOC(=O)C1SC2(C(F)(F)F)CC1(O)c1c(C)cc(C)nc1O2 (stereo not given),-0.9,0.47
COc1ccc(N2C(=O)/C(=C/c3ccco3)C(=O)NC2=S)cc1,0.9,-1
Cc1cc(/C=C2\C(=O)NC(=O)N(c3cccc(F)c3)C2=O)c(C)n1-c1ccc(C(=O)O)c(Cl)c1,-0.3,0.53
Cn1cccc1/C=C1\C(=O)NC(=O)N(Cc2ccccc2)C1=O,-2.0,-0.47
COC(=O)C1=C(c2cc3ccccc3s2)C[C@@H]2CC[C@H]1N2C(=O)N1CCC(O)CC1,-1.7,0.14
Cc1cc(N2CCN(C)CC2)nc2ccccc12,-0.7,-0.34
COC(=O)C(C)Oc1cc(C)cc2oc(=O)c3c(c12)CCCC3 (stereo not given),-1.8,-2.35
CN1CCCC(C(=O)c2ccc(-c3ccccc3)cc2)C1 (stereo not given),-0.2,-2.02

A second format for some results above:
Structure: CCOC(=O)C1SC2(C(F)(F)F)CC1(O)c1c(C)cc(C)nc1O2 (stereo not given)
  STK33 inh = -0.9; Kir21 inh = 0.47

Structure: Cc1cc(N2CCN(C)CC2)nc2ccccc12
  STK33 inh = -0.7; Kir21 inh = -0.34

An excerpt of these results, field by field:
> Cn1c(O)c(C(=NCCc2c[nH]c3ccccc23)c2ccccc2)c(=O)n(C)c1=O
  STK33 inh: -0.1
  Kir21 inh: 1.43
> CCCCCCn1c(=O)c(C(=O)Nc2cccc(C)n2)c(O)c2ccccc21
  STK33 inh: 0.4
  Kir21 inh: -2.15
> CCCCn1c(=O)c(C(=O)Nc2ccc(C)cn2)c(O)c2ccccc21
  STK33 inh: -1.1
  Kir21 inh: -0.48
> CCN1C(=O)NC(=O)/C(=C\c2ccc(N3CCOCC3)cc2OC)C1=O
  STK33 inh: 0.7
  Kir21 inh: 1.74

Not all compounds are listed, and most or all hits are left out here.
